Screening data as filed in PubChem BioAssay.
CtBP-E1A inh – inhibitors of CtBP/E1A interaction | AlphaScreen GST-E1A/His-CtBP binding, 1536-well; hits give low values; control for the full effect not named in the record | activity change, % (no concentration beside the values) | 0.49% of 340,000 active; in the data active means activity change below about -65%; inconclusive means about -30% to -65%; inactive means above about -30%; note: % is set by controls: 0 for no effect and ±100 for the full control effect; compound concentration not given in the record
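Homogeneous bead-based format: GST-tagged E1A captured on glutathione donor beads, His-tagged CtBP on nickel acceptor beads; compounds precede bead addition by 2 h at 37 °C.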
gsp ag – gsp mutant agonism; gsp mutant cells, cAMP HTRF, 30 min; control for the full effect not named in the record; Potency, µM (series often up to 76.9 µM), inactives show top-dose activation (cAMP increase), usual class: activators; 0.13% of 340,000 active; active = well fitted activation curve with a large enough effect; inconclusive = small, poorly fitted or top-dose-only effect, or another doubt; inactive = no such curve, though single readings can be large or run the other way; cell line not stated here;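 note: phosphodiesterase inhibitor Ro 20-1724 added with compounds to block cAMP breakdown; potency is the fitted concentration of half-maximal effect; nearly all actives have a fitted effect of over 60% in size; about a fifth of the inactives were tested at one dose only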
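Cells in DMEM/10% FBS with G418 were pretreated with compounds in DMSO plus […] (300 uM stock) for 30 min at 37C. cAMP was measured by HTRF (cAMP-d2 plus anti-cAMP antibody-K) after 30 min at room temperature.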
gsp antag – gsp mutant antagonism; gsp-mutant cells, cAMP HTRF, 30 min; control for the full effect not named in the record; Potency, µM (titrated, usually from 76.9 µM), for the others: at the highest dose activity change, negative = inhibition, actives largely listed as inhibitors; 0.4% of 340,000 active; active = falling curve of any shape with a large fitted effect; inconclusive = falling curve, mostly with a smaller effect; inactive = flat or rising curve; cell line not stated here;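 note: intracellular cAMP measured with PDE inhibitor Ro 20-1724 present during compound exposure; potency is the fitted concentration of half-maximal effect; % is set by controls: 0 for no effect and ±100 for the full control effect; nearly all actives have a fitted effect of over 65% in size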
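HTRF cAMP read-out (cAMP-d2 plus anti-cAMP antibody-K in lysis buffer, 30 min RT). Before lysis, cells are exposed to compounds with […] for 30 min at 37C in DPBS containing Ca/Mg, BSA and Tween 20.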
D2 ag – agonists of human D2 dopamine receptor (beta-arrestin); DiscoveRx PathHunter D2 beta-arrestin, luminescence, 90 min; 100% = 57 uM dopamine signal; activation, % (concentration not given with the values); 0.084% of 360,000 active; AID 624465; in the data active = activation above about 40%; inconclusive = about 15% to 40%; inactive = below about 15%; note: compound concentration not given in the record; the text of the record calls up to 30% inactive
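DiscoveRx PathHunter D2 beta-arrestin cells (2,100/well) attached overnight, then compound-stimulated 90 min at 37 C in HBSS/10 mM HEPES/0.1% Tween-20 buffer; beta-galactosidase complementation read by luminescence after 1 h at ambient temperature. Dopamine 57 uM final (EC100) as control.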
D2 PAM – positive allosteric modulators of human D2 dopamine receptor; P14416; DiscoveRx D2 beta-arrestin cells, luminescence, 90 min; 100% = 57 uM dopamine signal; potentiation, % (test concentration not listed); 0.23% of 360,000 active; AID 624464; active = potentiation of 50% or more; inconclusive = 30% to 50%; inactive = 30% or less;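 note: compound concentration not given in the record; tested on top of an EC20 dose of dopamine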
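PathHunter D2 cells, attached overnight at 37 deg C, received compound in DMSO plus dopamine at EC20 (50 nM final) for 90 min at 37 deg C. Beta-arrestin recruitment was read as luminescence after 1 h with detection reagent at ambient temperature.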
Six1-Eya2 inh – inhibitors of human Six1/Eya2 interaction | AID 651725 | activity change, % (concentration not given with the values) | AlphaScreen GST-Six1/His-Eya2 binding, biochemical; hits give low values; control for the full effect not named in the record | 0.56% of 360,000 active; in the data active = activity change below about -65%; inconclusive = about -30% to -65%; inactive = above about -30%; note: % is set by controls: 0 for no effect and ±100 for the full control effect
Target sequence (O00167 whole entry, looked up): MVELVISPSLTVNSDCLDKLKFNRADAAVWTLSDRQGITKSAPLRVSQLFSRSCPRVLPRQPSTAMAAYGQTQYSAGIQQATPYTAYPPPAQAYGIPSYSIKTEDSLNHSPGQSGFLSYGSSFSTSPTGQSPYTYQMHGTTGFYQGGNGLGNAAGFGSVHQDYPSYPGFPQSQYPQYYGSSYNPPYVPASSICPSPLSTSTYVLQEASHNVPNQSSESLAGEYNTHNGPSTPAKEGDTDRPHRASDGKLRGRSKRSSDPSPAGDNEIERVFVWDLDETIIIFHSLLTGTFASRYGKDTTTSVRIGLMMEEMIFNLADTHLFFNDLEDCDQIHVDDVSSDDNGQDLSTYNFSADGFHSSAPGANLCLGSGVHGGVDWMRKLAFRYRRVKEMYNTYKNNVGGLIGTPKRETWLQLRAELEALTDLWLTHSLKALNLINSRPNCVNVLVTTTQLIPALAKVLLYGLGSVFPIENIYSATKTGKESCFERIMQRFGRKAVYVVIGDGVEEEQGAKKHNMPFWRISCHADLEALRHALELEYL
Target sequence (Q15475 whole entry, looked up): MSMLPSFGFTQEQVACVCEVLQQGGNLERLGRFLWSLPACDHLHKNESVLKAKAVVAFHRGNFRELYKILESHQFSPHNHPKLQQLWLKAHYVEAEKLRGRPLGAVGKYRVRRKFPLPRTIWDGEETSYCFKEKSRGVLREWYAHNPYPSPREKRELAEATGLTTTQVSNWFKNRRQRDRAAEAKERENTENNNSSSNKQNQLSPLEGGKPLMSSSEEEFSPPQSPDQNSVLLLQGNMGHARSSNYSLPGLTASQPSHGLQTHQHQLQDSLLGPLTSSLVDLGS
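GST-Six1 + His-Eya2 (5X stock: 250/500 nM); Tris pH 8.0, 300 mM NaCl, 0.05% BSA, 0.02% Tween 20; GSH donor/Ni acceptor beads; 1 h 37 °C dark; AlphaScreen readout.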
The depositor's hits bear a star; ? = inconclusive; nt = not tested or not shown; [ ] = remark or other dose.

SMILES,CtBP-E1A inh,gsp antag,D2 ag,D2 PAM,gsp ag,Six1-Eya2 inh
CS(=O)(=O)N1CCCC(C(=O)c2cccc(Cl)c2)C1 (stereo not drawn),-4,4%,-10,-8,8%[15.4 µM],2
COc1cccc(/C=N\NS(=O)(=O)c2ccccc2)c1OC,4,4%,-1.8,-14,-14%,1
COC(=O)c1cccc(CN2C(=O)C(C)Sc3ccc(C#N)cc32)c1 (stereo not drawn),2,nt,11,-1,nt,-4
COc1cccc(C(C(=O)NC2CCCC2)N(CCC(C)C)C(=O)CCC(=O)Nc2cc(C)on2)c1 (stereo not drawn),6,-7%,-0.8,-3,7%[15.4 µM],3
CN1CCN(c2ccc(S(=O)(=O)N3CCOCC3)cc2NC(=O)CC(C)(C)C)CC1,-7,7%,-1.8,0,-36%,0
C=CCOc1c(Br)cc(CNn2c(C)n[nH]c2=S)cc1OC,-1,-6%,-4.1,-10,-9%[15.4 µM],0
COc1ccccc1NC(c1cccnc1)c1ccc2cccnc2c1O (stereo not drawn),-78*,-11%,-0.4,-5,2%,-79*
COc1ccc(N2CCN(C(=O)CCNC(=O)c3ccccc3)CC2)cc1,nt,1%,-3.7,-5,?,4
C=CCC(NC(=O)Cc1ccccc1)C(=O)NCCC (stereo not drawn),7,2%,-6.7,-9,?,27
CCC(C)Sc1ccc([C@H]2N[C@@](Cc3ccccc3)(C(=O)OC)[C@H]3C(=O)N(CC)C(=O)[C@@H]23)cc1OC (stereo partly drawn),-14,-4%,-5.5,-11,?,4
COc1ccc2c(c1)c(CC(=O)Nc1cccc(S(N)(=O)=O)c1)c(C)n2C(=O)c1ccc(Cl)cc1,0,?,6.2,-5,-5%[15.4 µM],-5
COCCn1c(=S)[nH]c2cc(C(=O)NC3CCCC(C)C3C)ccc2c1=O (stereo not drawn),-11,nt,-3.7,-9,-52%[inhibitor],10
CC1Cc2ccccc2N1CC(=O)Nc1cc(S(=O)(=O)N2CCOCC2)ccc1Cl (stereo not drawn),4,nt,-3.6,-15,9%,0
CCN(CC)/C(N)=N/c1nc(C)cc(C)n1,3,13%,-1.3,-5,11%[15.4 µM],12
Cc1ccc2c(c1)N(S(=O)(=O)c1ccc(F)cc1)C(C(C)(C)C)CO2 (stereo not drawn),13,-21%,-0.6,-1,15%,7

Continued, overlapping the part above by 5 compounds.
SMILES,CtBP-E1A inh,gsp antag,D2 ag,D2 PAM,gsp ag,Six1-Eya2 inh
COc1ccc2c(c1)c(CC(=O)Nc1cccc(S(N)(=O)=O)c1)c(C)n2C(=O)c1ccc(Cl)cc1,0,?,6.2,-5,-5%[15.4 µM],-5
COCCn1c(=S)[nH]c2cc(C(=O)NC3CCCC(C)C3C)ccc2c1=O (stereo not drawn),-11,nt,-3.7,-9,-52%[inhibitor],10
CC1Cc2ccccc2N1CC(=O)Nc1cc(S(=O)(=O)N2CCOCC2)ccc1Cl (stereo not drawn),4,nt,-3.6,-15,9%,0
CCN(CC)/C(N)=N/c1nc(C)cc(C)n1,3,13%,-1.3,-5,11%[15.4 µM],12
Cc1ccc2c(c1)N(S(=O)(=O)c1ccc(F)cc1)C(C(C)(C)C)CO2 (stereo not drawn),13,-21%,-0.6,-1,15%,7
O=C(COC(=O)CNC(=O)c1ccco1)NCc1ccc(F)cc1,7,9%,-5.6,-9,5%[15.4 µM],13
C#CCN(C[C@H]1[C@H](OC(=O)NCc2ccccc2)[C@H](OC(=O)NCc2ccccc2)C[C@@H](C(=O)OC)[C@H]1C(=O)OC)S(=O)(=O)c1ccc(C)cc1,3,nt,-4.9,3,?,1
COc1ccc(NC(=O)CN(c2ccccc2)S(=O)(=O)N(C)C)cc1Cl,-2,3%,7.5,2,?,-8
Cn1c(N)c(C(=O)COC(=O)c2cc(S(=O)(=O)NCc3ccccc3)ccc2O)c(=O)n(C)c1=O,-25,-7%,0.5,-7,4%,-16
COCCCn1cnc2c(c1=O)c1nc3ccccc3nc1n2CCc1ccccc1,-3,?,-4.2,-14,-5%[15.4 µM],-6
O=C1CSc2ccc(C(=O)N3CCN(c4ccccn4)CC3)cc2N1,1,3%,-3.3,-7,?,0
Cc1cc(C)c(C(=O)COC(=O)c2c(C)noc2C)cc1C,nt,-11%,1.1,-2,-38%[inhibitor],21
N#Cc1cc[n+](CC(=O)c2ccc(NC(=O)c3ccccc3)cc2)cc1,nt,3%,-7.4,-14,-15%,-21
O=C1OC(/C=C/c2ccccc2)=NC/1=C\c1cccnc1,6,8%,-5.9,2,-16%[15.4 µM],17
COc1ccccc1CNC(=O)c1cc(-c2ccccc2C)nn1CC1CC(c2cccnc2)=NO1 (stereo not drawn),-4,-7%,-1.6,-8,nt,-6
COc1cccc(CC(=O)Nc2cc(S(=O)(=O)N3CCCCC3)ccc2C)c1,3,?,2.0,5,-4%,2
CCOC(=O)c1c(C(=O)OCC)c(C)n(CCc2ccccc2)c1C,-4,?,-3.0,23,11%,-7
CCn1ccnc1CN(C)C(=O)c1ccc2nc(Cc3ccc(OC)cc3)oc2c1,0,-4%,0.5,-25,?,-3
CCN(C(=O)C(=O)c1c[nH]c2ccccc12)c1ccccc1,-12,2%,-2.5,1,-1%,0
O=c1c2ccccc2nc2oc3ccccc3n12,-5,15%,-1.4,-3,6%,-8

2 consecutive compounds already listed, quoted:
SMILES,CtBP-E1A inh,gsp antag,D2 ag,D2 PAM,gsp ag,Six1-Eya2 inh
CCN(C(=O)C(=O)c1c[nH]c2ccccc12)c1ccccc1,-12,2%,-2.5,1,-1%,0
O=c1c2ccccc2nc2oc3ccccc3n12,-5,15%,-1.4,-3,6%,-8

Additional records follow:
SMILES,CtBP-E1A inh,gsp antag,D2 ag,D2 PAM,gsp ag,Six1-Eya2 inh
Cc1cc(C)c[n+](-c2nc([O-])sc2C=O)c1,1,11%,-4.4,-14,10%,-8
CCOc1ccc(C(C)=O)cc1COC(=O)C(C)N=C1NS(=O)(=O)c2ccccc21 (stereo not drawn),0,nt,-2.1,-6,0%[15.4 µM],3
NNC(=O)CCN1CCN(Cc2ccccc2)CC1,2,7%,-2.4,-6,4%[15.4 µM],5
O=C(Cn1nnc(-c2ccc([N+](=O)[O-])cc2)n1)NNC(=O)c1ccccc1,-1,8%,1.7,2,1%[15.4 µM],-1
CCC1(C)Cc2c(sc3nnn(CC(=O)Nc4ccc(C)cc4)c(=O)c23)CO1 (stereo not drawn),0,-27%,0.5,-13,10%,-11
COc1ccc2oc(C(=O)CCC(=O)O)c(N)c2c1,3,3%,-1.3,2,-1%,24
CCCSc1nc2[nH]ncc2c(=O)[nH]1,6,10%,1.3,4,-31%[inhibitor],-2
COC(=O)c1cc(OC)c(OC)cc1NC(=O)Nc1ccccc1F,-1,17%,-1.2,1,9%[15.4 µM],-8
CCCC(C)c1nnc(NC(=O)C2CC(=O)N(CCc3ccc(F)cc3)C2)s1 (stereo not drawn),4,-8%,2.1,-1,29%,-7
CCN(CC)CCNC(=O)c1ccc(NC(=O)c2cccc(S(=O)(=O)N3CCCCCC3)c2)cc1,2,8%,-1.9,-5,-30%[inhibitor],-4
COc1ccc(NC(=O)CC2C(=O)N(c3ccc(Cl)cc3)C(=S)N2CCc2ccccn2)cc1 (stereo not drawn),2,-24%,-5.7,5,2%,-4
O=C(O)CC(CC(=O)Nc1ccc(F)c(Cl)c1)c1ccc(Cl)cc1Cl (stereo not drawn),5,1%,-2.7,0,-26%[15.4 µM],14
Cc1cccc(C2CC(c3ccccc3)Nc3ncnn32)c1 (stereo not drawn),3,0%,-1.0,-2,-10%,7
O=C(NCc1ccccc1)C1CCCN1S(=O)(=O)c1ccc(Cl)cc1 (stereo not drawn),10,3%,-3.4,-7,6%,0
COc1ccc(NC(=O)c2ccco2)cc1NC(=O)c1cccs1,9,-3%,-1.5,-9,-44%,-1
CC(C)CNC(=S)N1CCN(c2nc3ccccc3s2)CC1,-13,-10%,7.5,-10,-35%[inhibitor],-1
COc1cc(Cn2nnc3ccccc32)ccc1O,4,2%,-3.1,-1,-25%,3
COc1ccccc1C(=O)n1nc(-c2ccco2)nc1SC,21,-18%,-3.3,-5,14%,6
CC1(N(O)/C=C2\C=CC=CC2=O)CCCCC1=O (stereo not drawn),-12,4%,-0.6,-15,-20%,17
CNC(=O)COC(=O)Cc1ccc(Cl)cc1,1,12%,-4.6,0,-3%[15.4 µM],-5
CC/C(=N/NC(=O)c1ccc2c(c1)OCO2)c1ccccc1O,nt,-3%,-5.3,-34,21%,-15
CCC[n+]1c2ccccc2cc2ccccc21,-3,-27%,-4.2,-8,?,-2
CCOC(=O)C1CCN(S(=O)(=O)c2ccc(C)c(C(=O)NC3CCCCC3)c2)CC1,8,0%,-2.3,-16,-1%,3
Nc1n[nH]c(N)c1N=Nc1ccc(Cl)cc1,-20,11%,-2.8,-10,-31%,-25
Nc1nc(-n2cnnc2)nn1-c1ccccc1,0,-4%,-2.2,5,-16%,-2
Brc1cccc(OCCn2ccnc2)c1,2,0%,0.0,-7,-2%,4
COc1cccc(/C=C2\SC(=S)N(CCCC(=O)N3CCCC3)C2=O)c1,-2,?,-1.8,14,-12%,-12
Cc1cc(=O)oc2c(C)c(OCC(=O)NCCCn3ccnc3)ccc12,-7,22%,-3.0,-8,3%,-4
COc1ccc(C(=O)Cn2cnc3ccccc3c2=O)cc1,5,2%,0.0,-5,7%[15.4 µM],-7
OCC1CCCN(Cc2ccc(-c3ccccc3)cc2)C1 (stereo not drawn),-5,6%,-1.0,-27,4%,1
CCn1c(=O)c2cc(C(=O)NCC(OC)OC)sc2c2ccccc21,-3,-8%,0.8,-9,?,-8
COc1ccc(C2/C(=C(/O)c3ccc4c(c3)CC(C)O4)C(=O)C(=O)N2Cc2ccncc2)cc1 (stereo not drawn),1,10%,-0.3,-5,?,-2
COc1cccc(C2c3c(oc4ccccc4c3=O)C(=O)N2CCCN2CCOCC2)c1 (stereo not drawn),-1,?,-1.1,-1,0%,-2

Gathered by group, those above containing a furan ring, fused or not
SMILES,CtBP-E1A inh,gsp antag,D2 ag,D2 PAM,gsp ag,Six1-Eya2 inh
O=C(COC(=O)CNC(=O)c1ccco1)NCc1ccc(F)cc1,7,9%,-5.6,-9,5%[15.4 µM],13
COc1ccc2oc(C(=O)CCC(=O)O)c(N)c2c1,3,3%,-1.3,2,-1%,24
COc1ccc(NC(=O)c2ccco2)cc1NC(=O)c1cccs1,9,-3%,-1.5,-9,-44%,-1
COc1ccccc1C(=O)n1nc(-c2ccco2)nc1SC,21,-18%,-3.3,-5,14%,6
